Calb FLC: C. albicans growth modulation with fluconazole. C. albicans CaCi-2 (fluconazole-resistant clinical isolate) + fluconazole, Alamar Blue growth, 48 h. growth inhibition, % (test concentration not listed). hit rate 0.57% among 300,000;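 active means most replicates above 75%; inconclusive means exactly half above 75%; inactive means most below 75%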;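 further: all wells also contain fluconazole at 8 µg/ml as a sub-toxic cotreatment; 0% = median of DMSO wells and 100% = median of geldanamycin control wells; wells of about 8 µL received 7.5 nL stock; the first replicate is given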
B2AR ag: human beta-2 adrenergic receptor agonism by FAP; P07550; Am2.2-beta2AR cells, FAP receptor internalization, flow cytometry; reference of the scale not given here; response, % (test concentration not listed); hit rate 0.43% among 340,000; AID 504454;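 active means response above a set limit, near 3 SD of response in nonfluorescent compounds, cut at about 42% in these data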;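 further: stock transfer was 100 nL into about 11 µL; a reference agonist was the positive control; negative values mostly stem from fluorescent compounds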
Target sequence (P07550 whole entry, looked up): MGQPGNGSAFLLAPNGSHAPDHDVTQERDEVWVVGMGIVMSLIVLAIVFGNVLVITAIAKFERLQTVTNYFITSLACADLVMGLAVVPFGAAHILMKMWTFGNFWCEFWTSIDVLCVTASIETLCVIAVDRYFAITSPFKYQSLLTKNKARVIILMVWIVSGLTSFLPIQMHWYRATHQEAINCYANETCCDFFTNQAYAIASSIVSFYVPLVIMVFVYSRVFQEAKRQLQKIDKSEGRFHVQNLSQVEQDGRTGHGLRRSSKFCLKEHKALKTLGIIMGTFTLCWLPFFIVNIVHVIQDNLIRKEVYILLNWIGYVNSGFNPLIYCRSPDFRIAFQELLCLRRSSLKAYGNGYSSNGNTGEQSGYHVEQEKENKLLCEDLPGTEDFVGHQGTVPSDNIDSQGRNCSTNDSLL
rRNA inh HTS: inhibits bacterial ribosomal RNA function over humanized ribosomes; E. coli WT GFP vs humanized-ribosome RFP mutants, fluorescence, 24 h; stronger effect = lower value; DMSO median 0, no signal -100; GFP signal change (wild-type ribosome), % (test concentration not listed); hit rate 1.6% among 350,000; AID 720706;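 active means significant combined selectivity score with lowered wild-type GFP, culture density cut under 30%, mutant RFP and density less affected; inactive means any of these conditions unmet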; further: one replicate is shown; some compounds called inactive have numbers as strong as hits
A1 inh: inhibitors of the anti-apoptotic protein A1, read as caspase activation; MEF A1-2A-BIM cells, Caspase-Glo 3/7 luminescence, 3 h; percent of clofoctol response, vehicle zero; caspase activation, % (concentration not given with the values); hit rate 0.066% among 330,000; AID 2462;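 active means over half of replicate activation scores above 10%, or exactly half above 10 with the replicate mean above 10; inconclusive means replicate mean below 10 yet half the replicates above 10; inactive means over half of replicates below 10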;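 further: wells of about 30 µL received 50 nL stock; many hits fall short of the cut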
ALR inh: inhibitors of human sulfhydryl oxidase ALR. inhibition, % (test concentration not listed). P55789. purified ALR, DTT oxidation, H2O2 HRP-luminol luminescence. hit rate 3.8% among 290,000;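 active means mean and each replicate at 75% or more; inconclusive means only one of the two met; inactive means neither met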;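 further: stock transfer was 7.5 nL into about 7.5 µL; 0% = neutral wells and 100% = wells with inactivated enzyme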
Target sequence (P55789 whole entry, looked up): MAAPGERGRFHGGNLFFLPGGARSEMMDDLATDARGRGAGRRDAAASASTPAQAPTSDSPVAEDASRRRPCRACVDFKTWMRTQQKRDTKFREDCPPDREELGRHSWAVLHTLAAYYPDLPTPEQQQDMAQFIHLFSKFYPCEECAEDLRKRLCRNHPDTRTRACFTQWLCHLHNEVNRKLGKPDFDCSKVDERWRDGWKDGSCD
T cruzi inh: blocks replication of Trypanosoma cruzi | T. cruzi beta-gal in NIH3T3, luminescence, 90 h | inhibition, % (concentration not given with the values) | hit rate 1.4% among 300,000 | AID 1885;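 active means mean inhibition across valid replicates above about 55%, limit read from the data; inconclusive means mean below that limit but half or more replicates reach it; inactive means mean below it, under half of replicates reach it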;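 further: signal also drops with host cell toxicity which is not excluded here; 0% = plate median of DMSO wells and 100% = zero luminescence signal; higher percent means less beta-gal luminescence so fewer parasites; stock transfer was 50 nL into about 50 µL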
Beta cell apopt: beta cell apoptosis inhibition; protection from apoptosis, % (concentration not given with the values); hit rate 0.8% among 300,000; AID 435005; INS-1E cytokine-induced death, ATP luminescence, 48 h; percent of positive-control rescue, neutral wells zero;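 active means all replicates at 75% or more, or half of them and the mean; inconclusive means half reach 75% but not the mean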;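 further: 0% = cytokine-treated negative control wells and 100% = positive control rescue; higher means more ATP so stronger rescue from cytokine killing; wells of about 40 µL received 100 nL stock; the first replicate is given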
LANA-H2A inh: blocks KSHV LANA binding to histone H2A/H2B | cell-free LANA-H2A/H2B peptide, fluorescence polarization | inhibition, % (no concentration beside the values) | hit rate 0.6% among 320,000 | AID 2629; in the data active means inhibition mostly above about 10%, no sharp cut-off; inactive means mostly below about 6.7%;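 further: stock transfer was 7.5 nL into about 10 µL; 0% = median of vehicle wells and 100% = median of positive control wells; one replicate is shown; the record names a cut of 25% in any replicate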
rRNA inh HTS OD600: further read-out of rRNA inh HTS, marked with its call; OD600 change, %; measured here: OD600 growth;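 optical density of the mix in the first replicate; 0 = DMSO median and -100 = no signal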
rRNA inh HTS RFP: second read-out of rRNA inh HTS, no call of its own (marks repeat the call); RFP signal change, %; measured here: RFP humanized mutant strains;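 first replicate; 0 = DMSO median and -100 = no signal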
An asterisk follows results filed as active; ? = inconclusive; . = no result given.

SMILES | Calb FLC | B2AR ag | rRNA inh HTS | rRNA inh HTS OD600 | rRNA inh HTS RFP | A1 inh | ALR inh | T cruzi inh | Beta cell apopt | LANA-H2A inh
O=C(c1ccc(S(=O)(=O)N2CCc3ccccc3C2)cc1)N1CCCCC1 | -2 | -2 | -11 | -13 | -3.3 | 1.3 | -1 | 26 | -11 | -2.8
COc1ccc(NS(=O)(=O)c2cccc(NC(=O)c3ccc(Cl)nc3)c2)cc1 | -4 | 2 | -25* | -19* | 9.2* | -0.4 | -8 | -41 | 107* | -0.5
CC(=O)NC(CC(=O)O)C(=O)O (stereo unspecified) | 11 | 2 | . | . | . | 1.4 | 1 | -6 | -1 | -4.9
Cn1c(=O)c2c(nc(Br)n2Cc2ccccc2Cl)n(C)c1=O | 13 | -11 | . | . | . | 0.7 | 0 | 0 | -1 | 3.7
COc1ccccc1C(CNC(=O)COc1cc(C)ccc1Cl)N1CCCC1 (stereo unspecified) | -10 | -3 | 2 | 2 | -0.8 | -0.1 | -1 | 3 | -5 | 3.5
Cc1ccc(NC(=O)CSCC(=O)NC2=NCCS2)cc1 | . | 9 | -1 | 7 | -3.6 | -0.3 | 98* | . | -17 | -1.2
Cc1ccc(-n2c(SCC(=O)N3CCOCC3)nc(O)c(Cc3ccccc3)c2=O)cc1 | -4 | 0 | -2 | -3 | -1.1 | -0.5 | 9 | -12 | -4 | -5.6
O=C(Nc1nc2c(s1)CCc1ccccc1-2)c1cccs1 | -6 | 1 | . | . | . | 0.1 | -25 | 29 | 17 | -0.8
O=C(/C=C/c1ccc(F)cc1)c1cc(Br)ccc1O | -9 | 9 | -27 | -21 | -12 | 0.4 | -7 | 0 | 2 | -8.3
O=C(c1ccco1)N1C(=O)c2cccc3c(S(=O)(=O)N4CCCC4)ccc1c23 | 3 | -3 | . | . | . | 0.7 | -2 | 9 | 1 | -3.4
CN(C)CCCOC(=O)c1ccc(Cl)cc1Cl | -31 | 2 | . | . | . | 0.2 | -14 | 62* | -5 | 4.5
COc1ccc(N2C(C)=CS/C2=C(/C#N)c2nnc(N3CCOCC3)n2-c2ccccc2)cc1 | -4 | 9 | . | . | . | ? | 6 | 19 | 1 | 2.1
Cc1sc2ncnc(NCCCN3CCCC3=O)c2c1C | 6 | 2 | 20 | 18 | 3.0 | -0.8 | -11 | -8 | 4 | 0.3
O=C(NCCc1c[nH]c2ccccc12)c1c(Cl)nc2sccn12 | 3 | -8 | . | . | . | -1.3 | -4 | 8 | 3 | 3.0
O=C1CC2(CCCC2)Oc2ccc(Cl)cc21 | 37 | -5 | 7 | 9 | 0.8 | -0.7 | . | -15 | -7 | 4.4
COc1ccc(S(=O)(=O)NC2CCCCC2)c(C)c1C | -2 | -6 | . | . | . | 0.2 | . | 4 | 4 | 0.4
COc1cccc(NC(=S)NCc2ccccn2)c1 | 5 | 5 | . | . | . | -0.6 | -4 | 5 | 6 | 1.5
O=C(COc1cccc(C(F)(F)F)c1)NCC(c1cccs1)N1CCOCC1 (stereo unspecified) | . | 3 | -10 | -9 | 3.1 | 0.9 | -12 | . | -3 | 1.5
CC1(C)CC(=O)C(CS(=O)(=O)c2ccccc2)=C(O)C1 | -11 | 3 | 18 | 17 | -2.8 | 2.3 | 22 | -10 | -2 | 4.9
COc1cc2c(cc1OC)CN(Cc1cc(OC)c3c(c1)OCO3)CC2 | -1 | -3 | 10 | 7 | 0.5 | 0.6 | 5 | 11 | -10 | 4.6

Some of the entries above in a different format.
| SMILES | Calb FLC | B2AR ag | rRNA inh HTS | rRNA inh HTS OD600 | rRNA inh HTS RFP | A1 inh | ALR inh | T cruzi inh | Beta cell apopt | LANA-H2A inh |
| --- | --- | --- | --- | --- | --- | --- | --- | --- | --- | --- |
| COc1cccc(NC(=S)NCc2ccccn2)c1 | 5 | 5 | . | . | . | -0.6 | -4 | 5 | 6 | 1.5 |
| COc1cc2c(cc1OC)CN(Cc1cc(OC)c3c(c1)OCO3)CC2 | -1 | -3 | 10 | 7 | 0.5 | 0.6 | 5 | 11 | -10 | 4.6 |
| O=C(COc1cccc(C(F)(F)F)c1)NCC(c1cccs1)N1CCOCC1 (stereo unspecified) | . | 3 | -10 | -9 | 3.1 | 0.9 | -12 | . | -3 | 1.5 |

Remaining list, next part.
SMILES | Calb FLC | B2AR ag | rRNA inh HTS | rRNA inh HTS OD600 | rRNA inh HTS RFP | A1 inh | ALR inh | T cruzi inh | Beta cell apopt | LANA-H2A inh
CC(=O)NC1(C(F)(F)F)C(=O)Nc2c1c(=O)[nH]c(=O)n2CC(C)C (stereo unspecified) | -4 | -3 | . | . | . | -0.7 | . | -7 | -3 | -3.4
COc1ccc(-n2c(O)c(/C=N/NS(=O)(=O)c3cccc([N+](=O)[O-])c3)c3ccccc3c2=O)cc1OC | 22 | -97 | 17 | 5 | 1.0 | -0.2 | 89* | 62* | 7 | -10
COc1ccc(C2CC(c3ccccc3)=NN2S(=O)(=O)c2ccccc2)cc1 (stereo unspecified) | 4 | -37 | -4 | -6 | -5.1 | 0.1 | -23 | -7 | 7 | 3.4
CCN(CC)C(=O)C1CCCN(C(=S)Nc2cccc3ccccc23)C1 (stereo unspecified) | 4 | 1 | . | . | . | 1.5 | -41 | 8 | 85* | 0.7
Cc1nc2ccccc2c(=O)n1/N=C/c1ccccn1 | 0 | -1 | . | . | . | -0.5 | -1 | 0 | -5 | 0.7
Nc1cc(=O)[nH]c(SCC(=O)N2CCCCC2)n1 | -9 | -5 | 19 | 17 | 4.4 | 0.5 | -1 | -10 | 5 | -1.5
COc1ccc(C(=O)CSc2nc(N)nc(SC)c2C#N)cc1 | 6 | 16 | . | . | . | -0.3 | -3 | 7 | 2 | -9.6
CCOC(=O)c1nnn(-c2nonc2N)c1CSc1ccc(C)cc1 | -5 | -1 | . | . | . | 0.6 | -6 | . | 2 | 9.5
c1cncc(CNc2c3c(nc4nnnn24)CCCC3)c1 | -2 | 7 | . | . | . | 0.9 | -5 | -10 | -5 | 18*
COC/C=C/C1=CC2=CC(=O)C(C)(OC(=O)c3cnc4ccccc4n3)C(=O)C2=CN1CCc1ccccn1 (stereo unspecified) | 9 | . | . | . | . | 0.5 | -92 | 5 | -3 | 2.1
CC(=O)c1ccc(NC(=O)CN2C(=O)NC(C)(c3ccc4c(c3)OCCO4)C2=O)cc1 (stereo unspecified) | . | 0 | 1 | 9 | -0.1 | 2.5 | -7 | . | -8 | 0.4
Cc1ccc(CN2CCNC(=O)C2CC(=O)O)o1 (stereo unspecified) | 2 | 3 | 11 | 7 | 0.4 | 0.4 | -6 | -2 | -4 | -0.6
CC(Oc1ccc(Cl)cc1Cl)c1ccnc(N)n1 (stereo unspecified) | 47 | 1 | -49 | -72 | -33 | -0.8 | -17 | 3 | -9 | -13
N=C(N)c1ccc(O)cc1 | -8 | 9 | 6 | 5 | -4.2 | 0.3 | -24 | 7 | 8 | -1.1
Cc1cccc(NCC(=O)N/N=C\c2cccc(Oc3ccccc3)c2)c1 | -6 | -7 | 6 | 6 | 1.3 | 0.5 | 2 | 9 | 1 | -0.1
COc1cccc(/C=C2\SC(=S)N(CCCC(=O)N3CCCC3)C2=O)c1 | -1 | -9 | -13 | -12 | 1.1 | -4.7 | -7 | 1 | -34 | -2.1
CCOC(=O)Cc1csc(NC(=O)CSc2nnc(-c3ccncc3)n2Cc2ccco2)n1 | 39 | -6 | . | . | . | 0.6 | 97* | 10 | -2 | -0.9
CC1=NNC(=O)C1CCC(=O)N/N=C/c1ccccc1 (stereo unspecified) | 7 | -8 | -1 | 5 | -2.5 | -0.1 | -6 | 4 | -5 | -1.0
Cc1nccn1CC(=O)N/N=C/c1cccs1 | -4 | 6 | 8 | -3 | 1.2 | 0.3 | -6 | -6 | 3 | -11
O=C(O)Cc1ccc(NCc2ccccc2Cl)cc1 | -13 | 2 | -5 | 1 | -8.2 | -0.2 | 97* | . | -23 | 4.6

Molecules listed so far containing bromine (2):
SMILES | Calb FLC | B2AR ag | rRNA inh HTS | rRNA inh HTS OD600 | rRNA inh HTS RFP | A1 inh | ALR inh | T cruzi inh | Beta cell apopt | LANA-H2A inh
Cn1c(=O)c2c(nc(Br)n2Cc2ccccc2Cl)n(C)c1=O | 13 | -11 | . | . | . | 0.7 | 0 | 0 | -1 | 3.7
O=C(/C=C/c1ccc(F)cc1)c1cc(Br)ccc1O | -9 | 9 | -27 | -21 | -12 | 0.4 | -7 | 0 | 2 | -8.3

Remaining list, next part.
SMILES | Calb FLC | B2AR ag | rRNA inh HTS | rRNA inh HTS OD600 | rRNA inh HTS RFP | A1 inh | ALR inh | T cruzi inh | Beta cell apopt | LANA-H2A inh
O=C(CSc1n[nH]c(-c2ccccn2)n1)Nc1cccc(Cl)c1 | -6 | -5 | -45 | -72 | -13 | 0.9 | -8 | 49 | 0 | -4.4
Cc1ccc(-c2cn3nc(-c4ccccc4)c(-c4ccccc4)nc3n2)cc1 | 6 | -137 | -20 | -33 | -1.7 | -1.7 | . | 6 | 1 | 4.8
COC(=O)c1ccc(OC)c(OC)c1Cl | -3 | 3 | 22 | 17 | -0.8 | -0.1 | 4 | -6 | -4 | 2.2
Cc1ccc(OCC(=O)Nc2ccc(NC(=O)c3cccs3)cc2)c(C)c1 | -3 | -2 | 15 | 13 | -0.8 | 1.5 | 0 | -12 | 11 | -1.0
CC1=C(C)CC2C(=O)N(c3cccc4ccccc34)C(=O)C2C1 (stereo unspecified) | 3 | 0 | 1 | -8 | 1.0 | -0.3 | . | -3 | -6 | 2.6
Cc1cc(C)c2c(C)nn(C3CCCCC3)c2n1 | -11 | 7 | . | . | . | -0.1 | -1 | 13 | -11 | 0.2
COc1cc(OC)c(NS(=O)(=O)c2c(C(=O)N3CCCCC3)c(C)n(C)c2C)cc1Cl | 2 | -3 | 1 | 0 | -3.2 | 0.0 | -12 | -4 | -7 | -0.8
O=C(Nc1ccc(S(=O)(=O)N2CCCCC2)cc1)c1ccc(CN2CCOCC2)cc1 | 11 | 15 | . | . | . | 0.2 | -3 | -22 | 18 | 7.2
CCn1c2ccccc2c2cc(NC(=O)COC(=O)c3ccc(NC(=O)CC#N)cc3)ccc21 | -9 | -6 | 4 | 0 | -1.6 | -0.5 | -4 | -3 | . | 0.5
O=C(NCc1cccc(Cl)c1)c1cnn2c1NC(c1ccco1)CC2C(F)(F)F (stereo unspecified) | -4 | -4 | . | . | . | 0.0 | 6 | 9 | 8 | 4.4
O=C(CSCCc1ccccn1)Nc1ccccn1 | 16 | -11 | . | . | . | -0.1 | 98* | -13 | -2 | 1.4
CC(C(=O)N(C)C1CCS(=O)(=O)C1)N1C(=O)/C(=C/c2ccco2)SC1=S (stereo unspecified) | -7 | -12 | -1 | 6 | 13 | 0.1 | -67 | -23 | -7 | 5.3
CN(C)/C=N/n1cnc2ccccc2c1=O | 3 | -4 | 25 | 14 | 4.6 | -0.2 | -2 | -10 | -7 | 2.7
CCn1cc(C(=O)NCCc2ccc(OC)cc2)c(=O)c2ccc(C)nc21 | 6 | 1 | -8 | -5 | -0.4 | -0.3 | 0 | 6 | 4 | -1.2
COCCn1c(SCC(=O)NC2CC2)nc2ccccc21 | . | -8 | 7 | 10 | -2.9 | 0.2 | 0 | . | -1 | 0.1

Not all compounds are listed; count on the stated rates, not on these rows.
